Compound activity as filed in PubChem.
TNAP inh hi DEA – human TNAP enzyme inhibitors, primary screen, biochemical, luminescent, high phosphate acceptor level, uHTS. purified TNAP, CDP-star luminescence, 1 M DEA. inhibition, % at 20 µM. 200,000 compounds, 0.03% hits. AID 1135, 2008;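 active = over 50% inhibition of tissue-nonspecific alkaline phosphatase at 20 µM in the single-dose screen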;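 note: plate controls were DMSO wells for no effect and EDTA-quenched wells as full inhibition for full effect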
Target sequence (P05186 whole entry, looked up): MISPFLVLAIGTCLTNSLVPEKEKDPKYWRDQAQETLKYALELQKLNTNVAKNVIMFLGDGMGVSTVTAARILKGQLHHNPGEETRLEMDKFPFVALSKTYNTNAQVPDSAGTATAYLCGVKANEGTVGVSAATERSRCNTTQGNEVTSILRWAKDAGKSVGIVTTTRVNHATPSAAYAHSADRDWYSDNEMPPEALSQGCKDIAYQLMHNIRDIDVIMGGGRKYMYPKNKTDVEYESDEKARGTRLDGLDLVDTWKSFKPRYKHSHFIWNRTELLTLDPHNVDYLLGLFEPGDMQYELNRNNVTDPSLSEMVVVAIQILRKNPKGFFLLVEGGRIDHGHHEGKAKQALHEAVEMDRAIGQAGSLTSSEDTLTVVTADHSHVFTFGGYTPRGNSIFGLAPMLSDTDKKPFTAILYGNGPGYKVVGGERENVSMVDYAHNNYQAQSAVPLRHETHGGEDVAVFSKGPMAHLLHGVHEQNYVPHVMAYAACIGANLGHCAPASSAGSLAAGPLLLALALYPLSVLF
L major viab – Leishmania major promastigote growth inhibition, primary screen; Leishmania major promastigotes, resazurin fluorescence viability; AID 1063, 2008; inhibition, % at 10 µM; 200,000 compounds, 9% hits; in the data active = inhibition above about 50%;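 note: promastigotes grown with compound for 44 hours at 28 °C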
Redox H2O2 prof – compounds producing H2O2 with reducing agent – biochemical, NIH compound library profiling, artefact control for MLSCN library redox annotation, primary screen; 200,000 compounds, 0.03% hits; activation, % at 10 µM; DTT-dependent redox cycling H2O2, phenol red/HRP absorbance; 100% = 100 µM peroxide control, 0% = buffer;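 active = activation of at least 50% relative to the plate's high and low controls in the primary single-dose screen; inactive = activation below 50%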;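 note: compound incubated with DTT at 0.8 mM final as the reducing agent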
TNAP inh no acc – human TNAP enzyme inhibitors, primary screen, biochemical, luminescent, no phosphate acceptor, uHTS | purified TNAP, CDP-star luminescence, 30 min | inhibition, % at 20 µM | 200,000 compounds, 0.26% hits;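 active = tissue-nonspecific alkaline phosphatase inhibition above about 50% at 20 µM in the single-dose screen, limit read from the data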;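 note: 0% = DMSO negative control and 100% = EDTA positive control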
Hsp70 act – Hsp70 transcriptional activators, primary screen, cell-based, HeLa, Hsp70 promoter luciferase, luminescence, 10 µM; HeLa Hsp70 promoter luciferase reporter; scaled: vehicle 0, proteasome-inhibitor control 100%; activation, % at 10 µM; 200,000 compounds, 0.04% hits; AID 1203, 2008;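 active = activation above the mean across all tested compounds plus 3 SD, cutoff set per campaign, cut at about 5.5% in these data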;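 note: 100% = MG132 at 30 µM as the positive control and 0% = DMSO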
S1P3 antagonist – S1P3 receptor antagonists, primary screen, cell-based; CHO S1P3 NFAT-BLA reporter, FRET fluorescence, antagonist mode; 170,000 compounds, 0.27% hits; Sphingosine 1-phosphate receptor 3 (Homo sapiens), Q99500; inhibition, % at 4.98 µM;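 active = inhibition above the plate cutoff, the mean inhibition of test wells on that plate plus 3 SD, cut at about 28% in these data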;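 note: cells challenged with S1P at its EC80 of 0.8 µM; blue over green emission ratio from cleaved BLA substrate after 4 h stimulation; 0% = S1P-stimulated wells and 100% = unstimulated DMSO-only wells; some compounds past the cut are filed as inactive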
Target sequence (Q99500 whole entry, looked up): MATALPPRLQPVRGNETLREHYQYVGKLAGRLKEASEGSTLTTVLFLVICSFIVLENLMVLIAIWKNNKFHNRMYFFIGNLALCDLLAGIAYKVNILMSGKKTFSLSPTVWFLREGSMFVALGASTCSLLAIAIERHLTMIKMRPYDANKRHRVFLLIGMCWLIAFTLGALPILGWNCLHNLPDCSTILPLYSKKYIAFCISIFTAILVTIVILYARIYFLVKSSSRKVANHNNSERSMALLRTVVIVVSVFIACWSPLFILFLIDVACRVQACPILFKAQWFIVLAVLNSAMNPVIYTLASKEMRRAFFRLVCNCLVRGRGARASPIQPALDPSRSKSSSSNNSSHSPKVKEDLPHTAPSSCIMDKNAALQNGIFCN
Efa HMGR inh – inhibitors of E. faecalis class II HMGR, primary screen, biochemical, Enterococcus faecalis; HMG-CoA reductase (Enterococcus faecalis, mvaE); purified E. faecalis HMGR, NADPH absorbance 340 nm kinetic; inhibition, % at 10 µM; 190,000 compounds, 0.41% hits; AID 1066, 2008;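 active = inhibition above a set limit, the median over all tested compounds plus 3 SD, cut at about 9.5% in these data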;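 note: enzyme runs in reverse so mevalonate oxidation gives rising NADPH absorbance; 0% = complete reaction with DMSO and 100% = background rate lacking mevalonate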
RAM inhibit – inhibitors of the yeast RAM network, primary screen, dse1pr::URA3 reporter, 5-FOA selection | inhibition, % at 50 µM | S. cerevisiae dse1pr::URA3 reporter, 5-FOA growth OD615, 2 d; analog-sensitive cbk1-as2 kinase mutant strain | 190,000 compounds, 1.8% hits;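 active = inhibition above a set limit, 3 SD over mean compound inhibition, cut at about 8.4% in these data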;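 note: 0% = DMSO-only wells with no growth and 100% = 10 µM 1-NA-PP1 full growth; inhibition rescues growth on 5-FOA so higher OD means more RAM inhibition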
Active calls of the source: *; & = joins results of further samples.

For CCCS(=O)(=O)N1CCCC(C(=O)N2CCOCC2)C1 (stereo not drawn) the results were TNAP inh hi DEA 2, L major viab -6, Redox H2O2 prof 3.8, TNAP inh no acc -6, Hsp70 act -0.2, S1P3 antagonist -22, Efa HMGR inh -2 and RAM inhibit 0.3.
COc1ccc(-c2c(C)nn(Cc3ccccc3)c2N)cc1 was read as TNAP inh hi DEA -6, L major viab 6, Redox H2O2 prof 1.3, TNAP inh no acc -14, Hsp70 act -0.2, Efa HMGR inh -2 and RAM inhibit 1.5.
Screening CN(C)/C=C(\C#N)C(=O)c1cccnc1Oc1ccc(F)cc1F returned TNAP inh hi DEA -2, L major viab -3, Redox H2O2 prof 4.0, TNAP inh no acc -8, Hsp70 act -0.2, Efa HMGR inh 3 and RAM inhibit 1.1.
For Cc1c(CCOC(=O)C2C3CC4CC(C3)CC2C4)sc[n+]1CC(=O)c1ccc(Br)cc1 (stereo not drawn) the results were TNAP inh hi DEA 19, L major viab 10, Redox H2O2 prof -0.2, TNAP inh no acc 12, Hsp70 act 0.2, Efa HMGR inh -2 and RAM inhibit -0.1.
O=C(Oc1cc2oc(=O)cc(-c3ccccc3)c2cc1Cl)C1CCCCC1 was read as TNAP inh hi DEA -6, L major viab -9, Redox H2O2 prof 1.6, TNAP inh no acc -7, Hsp70 act 0.1, Efa HMGR inh -8 and RAM inhibit 3.6.
For O=C(N/N=C/c1ccco1)c1ccccn1 the results were TNAP inh hi DEA -2, L major viab -3, Redox H2O2 prof -5.0, TNAP inh no acc -8, Hsp70 act 0.1, Efa HMGR inh 0 and RAM inhibit 0.5.
CS(=O)(=O)N(CC(=O)N/N=C/c1cccs1)c1cccc(Cl)c1Cl was read as TNAP inh hi DEA -4, L major viab 10, Redox H2O2 prof -4.5, TNAP inh no acc -10, Hsp70 act -0.2, Efa HMGR inh 4 and RAM inhibit 0.4.
Screening Cc1cccc(C(=O)NC2CCN(C(=S)NCc3ccco3)CC2)c1 returned TNAP inh hi DEA -3, L major viab -6, Redox H2O2 prof 1.2, TNAP inh no acc -11, Hsp70 act -0.1, Efa HMGR inh -1 and RAM inhibit 1.0.
For CCCOc1ccc(N2CC(C(=O)NC(C)C)CC2=O)cc1 (stereo not drawn) the results were TNAP inh hi DEA -2, L major viab -8, Redox H2O2 prof 1.8, TNAP inh no acc -10, Hsp70 act -0.2, S1P3 antagonist -39, Efa HMGR inh -1 and RAM inhibit 1.1.
Screening O=[N+]([O-])c1cc(C(F)(F)F)ccc1NCCCCNS(=O)(=O)c1ccc2ccccc2c1 returned TNAP inh hi DEA 3, L major viab -4, Redox H2O2 prof -2.8, TNAP inh no acc 1, Hsp70 act -0.3, Efa HMGR inh 2 and RAM inhibit 1.6.
Brc1ccc(-c2csc(N3CCc4ccccc4C3)n2)cc1 was read as TNAP inh hi DEA -8, L major viab 0, Redox H2O2 prof -1.9, TNAP inh no acc 5, Hsp70 act -0.2, Efa HMGR inh -1 and RAM inhibit 15*.
Screening COc1ccccc1NC(=O)CSc1nccc(=O)[nH]1 returned TNAP inh hi DEA -5, L major viab -5, Redox H2O2 prof -0.5, TNAP inh no acc -15, Hsp70 act 0.2, S1P3 antagonist -7, Efa HMGR inh 6 and RAM inhibit 1.1.
Screening CCCS(=O)(=O)N1CCC(C(=O)NCCCOC)CC1 returned TNAP inh hi DEA -3, L major viab -7, Redox H2O2 prof 3.5, TNAP inh no acc -9, Hsp70 act 0.0, S1P3 antagonist -25, Efa HMGR inh -6 and RAM inhibit 0.4.
`COc1ccc(-n2c(N)c(C(=O)NCc3ccco3)sc2=S)cc1` gave TNAP inh hi DEA -8, L major viab 2, Redox H2O2 prof 3.8, TNAP inh no acc -9, Hsp70 act -0.3, Efa HMGR inh 0 and RAM inhibit 4.4.
For CC(=O)Nc1cccc(N2C(=O)CCC2=O)c1 the results were TNAP inh hi DEA 0, L major viab 0, Redox H2O2 prof 0.1, TNAP inh no acc -5, Hsp70 act -0.1, Efa HMGR inh 0 and RAM inhibit 1.2.
For CCN(CC)CCN1C(=O)Cn2c(C)c(C)c3cccc1c32 the results were TNAP inh hi DEA -2&-3, L major viab 12&21, Redox H2O2 prof 0.7&-0.1, TNAP inh no acc -3&2, Hsp70 act -0.1&-0.1, S1P3 antagonist 1, Efa HMGR inh -2&-3 and RAM inhibit 1.2&1.6.
`Cc1ccc(C(=O)CSc2ncnc3sc4c(c23)CCCC4)cc1` gave TNAP inh hi DEA -7, L major viab -7, Redox H2O2 prof -1.9, TNAP inh no acc -5, Hsp70 act 0.3, Efa HMGR inh -1 and RAM inhibit 3.4.
`Cc1cccc(CSc2ncc(CO)n2C)c1` gave TNAP inh hi DEA -5, L major viab -2, Redox H2O2 prof -7.3, TNAP inh no acc 2, Hsp70 act 0.9, Efa HMGR inh 3 and RAM inhibit 2.0.
Screening O=C(Nc1cnc2ccccn2c1=O)c1ccc(Cl)cc1 returned TNAP inh hi DEA 0, L major viab -5, Redox H2O2 prof 2.2, TNAP inh no acc -8, Hsp70 act 0.0, Efa HMGR inh 3 and RAM inhibit 1.9.
Screening COc1cc(C2N(c3cc(C)on3)C(=O)C3CCCN32)cc(OC)c1OC (stereo not drawn) returned TNAP inh hi DEA -6, L major viab -1, Redox H2O2 prof -9.1, TNAP inh no acc -2, Hsp70 act -0.3, S1P3 antagonist -4, Efa HMGR inh -5 and RAM inhibit 3.0.
Screening Cc1ccnc(SCC(=O)Nc2sc3c(c2C#N)CCC(C(C)(C)C)C3)n1 (stereo not drawn) returned TNAP inh hi DEA -7, L major viab 12, Redox H2O2 prof 0.1, TNAP inh no acc -11, Hsp70 act -0.1, Efa HMGR inh -2 and RAM inhibit 3.7.
CC(=O)NC(O)C(=O)c1ccco1 (stereo not drawn) was read as TNAP inh hi DEA -1, L major viab -5, Redox H2O2 prof 2.3, TNAP inh no acc 2, Hsp70 act -0.2, S1P3 antagonist -14, Efa HMGR inh 1 and RAM inhibit 2.1.
Screening CCOC(=O)C1=C(CSc2nc(-c3ccccc3)ccc2C#N)OC(N)=C(C#N)C1c1ccc(OC)cc1 (stereo not drawn) returned TNAP inh hi DEA -8, L major viab -2, Redox H2O2 prof -3.5, TNAP inh no acc 13, Hsp70 act -0.4, Efa HMGR inh 0 and RAM inhibit 19*.
O=C(NC(Cc1c[nH]c2ccccc12)c1nnc2n1CCCCC2)c1ccc(Cl)cc1 (stereo not drawn) was read as TNAP inh hi DEA -2, L major viab -5, Redox H2O2 prof 0.1, TNAP inh no acc -2, Hsp70 act -0.1, Efa HMGR inh 2 and RAM inhibit 2.4.
c1ccc(-c2csc(N3CCc4ccccc4C3)n2)cc1 was read as TNAP inh hi DEA -3, L major viab -2, Redox H2O2 prof 2.8, TNAP inh no acc -12, Hsp70 act -0.2, Efa HMGR inh -2 and RAM inhibit 12*.
`CC(C)Oc1ccc(C2CC(=O)NC3=C2C(=O)CCC3)cc1` (stereo not drawn) gave TNAP inh hi DEA 1, L major viab -6, Redox H2O2 prof 3.5, TNAP inh no acc -6, Hsp70 act -0.4, S1P3 antagonist -3, Efa HMGR inh 0 and RAM inhibit 0.1.
Screening COc1ccc(N2C(=O)CCC(C(=O)N3CCC(C(N)=O)CC3)C2c2ccc(F)cc2)cc1 (stereo not drawn) returned TNAP inh hi DEA -5, L major viab -3, Redox H2O2 prof -2.8, TNAP inh no acc -12, Hsp70 act -0.1, Efa HMGR inh 0 and RAM inhibit -0.4.
Screening Cn1nc(C(F)(F)F)c(C(=O)Nc2ccc(C(F)(F)F)cc2)c1Cl returned TNAP inh hi DEA 2, L major viab 9, Redox H2O2 prof 1.5, TNAP inh no acc -5, Hsp70 act 0.0, Efa HMGR inh -7 and RAM inhibit 0.8.
CC1=C(C(N)=O)C(c2ccccc2)n2nc(-c3ccncc3)nc2N1 (stereo not drawn) was read as TNAP inh hi DEA -4, L major viab -3, Redox H2O2 prof -0.2, TNAP inh no acc -1, Hsp70 act -0.3, S1P3 antagonist -16, Efa HMGR inh -6 and RAM inhibit 2.0.
Screening CC(C)Cc1nc(N2CCN(C(=O)c3ccccc3)CC2)c(C#N)c2c1CCC2 returned TNAP inh hi DEA 3, L major viab 40, Redox H2O2 prof 1.4, TNAP inh no acc -6, Hsp70 act 0.1, Efa HMGR inh -1 and RAM inhibit 4.3.
For O=C(NCc1ccco1)c1ccc(N2CCCC2=O)cc1 the results were TNAP inh hi DEA -2, L major viab -4, Redox H2O2 prof -0.5, TNAP inh no acc -7, Hsp70 act -0.1, S1P3 antagonist -13, Efa HMGR inh -4 and RAM inhibit -0.7.
For Cc1oc(/C=N/NC(=O)CN(c2ccccc2Br)S(C)(=O)=O)cc1Br the results were TNAP inh hi DEA -3, L major viab 31, Redox H2O2 prof -12, TNAP inh no acc -5, Hsp70 act -0.3, Efa HMGR inh 0 and RAM inhibit 1.3.
`O=C(O)COc1ccc(-c2nccc(-c3cccs3)n2)cc1` gave TNAP inh hi DEA 0, L major viab -11, Redox H2O2 prof -4.9, TNAP inh no acc -8, Hsp70 act -0.5, Efa HMGR inh 0 and RAM inhibit 1.9.
Screening COc1cccc(C2=NOC(C(=O)NC(C)C)C2)c1 (stereo not drawn) returned TNAP inh hi DEA -7, L major viab -6, Redox H2O2 prof 2.2, TNAP inh no acc -4, Hsp70 act -0.3, S1P3 antagonist -2, Efa HMGR inh -3 and RAM inhibit 0.5.
For CN(C)S(=O)(=O)Oc1cccc(C(=O)Nc2ccc(Cl)c(Cl)c2)c1 the results were TNAP inh hi DEA -1, L major viab -3, Redox H2O2 prof 1.5, TNAP inh no acc -6, Hsp70 act -0.3, Efa HMGR inh -9 and RAM inhibit 9.9*.
O=C(CSc1ncnc2c1cnn2CCc1ccccc1)Nc1ccc(F)cc1 was read as TNAP inh hi DEA -6, L major viab -2, Redox H2O2 prof -3.4, TNAP inh no acc -15, Hsp70 act -0.3, Efa HMGR inh -4 and RAM inhibit 3.1.
CCOC(=O)c1cnc2c(N=Nc3ccccc3)c(N)nn2c1N was read as TNAP inh hi DEA 1, L major viab 68*, Redox H2O2 prof -4.9, TNAP inh no acc -8, Hsp70 act 0.4, Efa HMGR inh 2 and RAM inhibit 6.5.
Screening COc1ccc(N2CCN(c3oc(Cc4ccccc4)nc3C#N)CC2)cc1 returned TNAP inh hi DEA -6, L major viab 1, Redox H2O2 prof 2.3, TNAP inh no acc -8, Hsp70 act 0.2, Efa HMGR inh 0 and RAM inhibit 11*.
O=C(Nc1ccc2c(c1)OCO2)c1ccc[n+]([O-])c1 was read as TNAP inh hi DEA -3, L major viab -4, Redox H2O2 prof 2.4, TNAP inh no acc -10, Hsp70 act -0.4, Efa HMGR inh -4 and RAM inhibit 0.5.
`COc1ccccc1C(=O)N/C(=C/c1ccccc1)C(=O)NC(CCSC)C(=O)O` (stereo not drawn) gave TNAP inh hi DEA -6, L major viab 30, Redox H2O2 prof 0.9, TNAP inh no acc -14, Hsp70 act -0.1, Efa HMGR inh -2 and RAM inhibit 0.0.
`S=C1NCCOCCOCCOCCN1` gave TNAP inh hi DEA -3, L major viab -3, Redox H2O2 prof -0.2, TNAP inh no acc -4, Hsp70 act -0.4, Efa HMGR inh -1 and RAM inhibit 1.3.

Some of the compounds tested, so the mix of outcomes need not match the whole.
